YopH inh: YopH (Yersinia) phosphatase inhibition. actives 0.16% (n = 140,000). fluorescence Ex485/Em525. inhibition, %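 (about 10 µM by stock and volumes)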;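 active means inhibition of 50% or more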;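 further: controls were vehicle for no effect and minimum signal wells for full effect; inactives centre near -20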
Mtb bLac sens: beta-lactam sensitization of Mtb H37Rv; inhibition, % at 25 µM; M. tuberculosis H37Rv growth with meropenem, percent inhibition; hits of this screen are not shown here; actives 0.27% (n = 330,000);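 active means about 74% or more and at least 40 points above the plate without the antibiotic, then above 30% in a dose series; inconclusive means first-round hits that could not be retested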;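 further: growth measured after seven days incubation then overnight dye step; 0% = bacteria only wells and 100% = bacteria with antibiotic; twin plates without the antibiotic show which effects depend on it; some results filed as inactive read as strong as hits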
RecA intein inh: Mtb RecA intein splicing inhibition. P9WHJ3. cell-free RecA intein splicing, fluorescence. inhibition, %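 (about 9 µM by stock and volumes)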. actives 0.75% (n = 290,000); in the data active means inhibition above about 30%; inconclusive means no clear call, values can overlap the other calls;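 further: 0% = vehicle wells and 100% = reference inhibitor control wells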
Target sequence (P9WHJ3 whole entry, looked up): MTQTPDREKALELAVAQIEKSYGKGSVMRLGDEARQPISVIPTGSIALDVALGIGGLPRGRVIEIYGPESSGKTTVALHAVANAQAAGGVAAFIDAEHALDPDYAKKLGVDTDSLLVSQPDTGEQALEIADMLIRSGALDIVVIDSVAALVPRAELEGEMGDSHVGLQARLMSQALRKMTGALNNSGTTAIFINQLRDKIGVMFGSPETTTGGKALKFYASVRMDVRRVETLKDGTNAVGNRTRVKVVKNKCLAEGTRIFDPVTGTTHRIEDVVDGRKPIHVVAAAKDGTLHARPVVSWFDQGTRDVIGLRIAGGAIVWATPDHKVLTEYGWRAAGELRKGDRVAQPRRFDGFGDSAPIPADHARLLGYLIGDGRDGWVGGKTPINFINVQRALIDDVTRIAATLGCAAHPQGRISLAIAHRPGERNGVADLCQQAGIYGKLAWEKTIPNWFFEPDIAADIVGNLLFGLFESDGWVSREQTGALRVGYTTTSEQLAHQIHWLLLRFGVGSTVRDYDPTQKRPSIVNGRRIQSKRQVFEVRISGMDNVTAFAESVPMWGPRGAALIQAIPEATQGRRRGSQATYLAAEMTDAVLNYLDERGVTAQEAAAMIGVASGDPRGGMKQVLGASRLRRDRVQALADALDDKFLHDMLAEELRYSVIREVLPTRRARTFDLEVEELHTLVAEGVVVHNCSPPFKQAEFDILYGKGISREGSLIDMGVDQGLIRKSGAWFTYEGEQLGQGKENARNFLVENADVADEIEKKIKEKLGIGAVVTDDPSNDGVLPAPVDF
Mtb growth: M. tuberculosis H37Rv growth inhibitors, H37Rv strain (AID 1626). actives 0.95% (n = 220,000). inhibition, % at 10 µM; hits with a dose series show IC50 in µM. M. tuberculosis H37Rv growth inhibition; higher % means a stronger effect;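 active means confirmed in a dose series; inconclusive means inhibition above 80% but not taken into the dose series; inactive means below 80% or under 30% at every dose of the series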;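 further: bacteria incubated seven days before Alamar blue readout; 0% = bacteria only wells and 100% = bacteria with antibiotic wells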
Arbovirus anti: arbovirus infection inhibition | inhibition, % at 10 µM | actives 0.37% (n = 200,000) | AID 1251 | arbovirus infection cell-based antiviral screen;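 active means inhibition from about 30%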;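 further: bluetongue infection of BSR cells; cell survival read as ATP light after 72 h; 0% = infected wells without compound and 100% = uninfected wells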
Arbovirus anti repeat: recorded beside Arbovirus anti, whose call it bears; inhibition, %; measured here: 10K subset replicate screen; many hits read low in the repeat;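 first of two repeat runs on a subset; 0% = infected and 100% = uninfected wells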
An asterisk follows results filed as active; i = inactive; ? = inconclusive; / = no result given.

SMILES	YopH inh	Mtb bLac sens	RecA intein inh	Mtb growth	Arbovirus anti	others
O=c1oc2ccccc2n1CCc1ccccc1	18.8	-7.2	-1.4	-16.8%	-0.8
CC1CN=C(N(C(=O)Nc2ccccc2)c2ccc(S(=O)(=O)N3CCOCC3)cc2)S1 (stereo unspecified)	6.9	-3.5	1.1	-12.7%	4.0
Nc1nc(CSC(=S)N2CCOCC2)nc(Nc2ccc(F)cc2)n1	-29.2	4.7	3.4	5.8%	5.5
O=C(Nc1ccc(Cl)c(Cl)c1)C1C2C=CC3(O2)C1C(=O)N(CCN1CCCCC1)C3C(=O)NC1CCCCC1 (stereo unspecified)	/	10.8	2.5	/	/
Cc1[nH]c2ccc(C(=O)OC(C)C(=O)NCc3ccccc3)cc2c1C (stereo unspecified)	/	0.8	-4.5	/	/
Cc1ccc(S(=O)(=O)N2CCOCC2)c(C)c1-n1cnnn1	-93.2	6.8	-0.3	3.7%	0.5
COc1ccccc1NC(=O)N1c2ccccc2NC(=O)CC1C (stereo unspecified)	/	-4.2	-0.4	1.1%	/
Cc1ccc(S(=O)(=O)N(C)Cc2nc(-c3ccncc3)no2)cc1	-14.0	-2.9	0.4	-9.2%	1.3
CCOC(=O)c1ccc(NC(=O)CSc2nc(C)cc(=O)[nH]2)cc1	-36.2	16.7	-3.6	-0.3%	4.1	Arbovirus anti repeat=3.8
NCCc1ccccc1	/	-7.6	-1.6	-8.8%	/
O=C(NN1CCOCC1)c1ccccc1F	/	1.1	-5.7	/	/
N/C(=N\OC(=O)c1cccc2ccccc12)c1ccccn1	/	-3.1	2.4	4.9%	/
COc1ccc(-c2csc(NC(=O)CSc3nnc(Nc4ccccc4C)s3)n2)cc1	/	1.2	3.2	6.5%	-9.3
C=C(C)Cn1c(-c2cccs2)n[nH]c1=S	/	-3.5	-1.4	-3.7%	-1.3
Cc1ccc(SCC(=O)OCC(=O)NCC2CCCCC2)cc1C	/	0.2	10.3	/	/
O=C(O)CSc1c2c(nc3cc(C(=O)Nc4cccc(C(F)(F)F)c4)ccc13)CCC2	/	?	11.3	/	/
CCOC(=O)COc1ccc(Br)cc1/C=C1\SC(N)=NC1=O	/	-1.1	1.2	/	/
Cc1ccc(S(=O)(=O)N2CCN(S(C)(=O)=O)C2C)cc1 (stereo unspecified)	/	-3.0	-1.0	/	/
Cc1nc(COc2ccc(C(=O)Nc3ccccc3N3CCOCC3)cc2)cs1	/	2.5	2.4	/	/
CC(C)(C)c1nc(-c2ccccc2)nc2c1OCCC2	/	-4.0	2.4	/	/
CC1=C([N+](=O)[O-])C(c2ccccc2C(F)(F)F)NC(=O)N1C (stereo unspecified)	/	-3.4	-0.1	2.2%	/
CN(C)C(=O)C[n+]1cccc(/C=N/O)c1	-0.5	-7.6	0.1	7.3%	6.8
C#CCSc1[nH]c(=O)cc(C)c1C#N	/	-0.1	-4.3	-3.0%	-0.4
CCOc1ccc(N2CC(C(=O)Nc3ccccc3F)CC2=O)cc1 (stereo unspecified)	-9.6	1.6	5.0	-10.9%	0.0
CCOC(=O)CC/C(C)=N\N=C1\SC(CC(=O)O)C(=O)N1c1ccccc1 (stereo unspecified)	/	-4.3	1.6	-8.9%	/

Ordered by heavy-atom count (descending): 3 of the compounds above
SMILES	YopH inh	Mtb bLac sens	RecA intein inh	Mtb growth	Arbovirus anti	others
Cc1[nH]c2ccc(C(=O)OC(C)C(=O)NCc3ccccc3)cc2c1C (stereo unspecified)	/	0.8	-4.5	/	/
CCOC(=O)c1ccc(NC(=O)CSc2nc(C)cc(=O)[nH]2)cc1	-36.2	16.7	-3.6	-0.3%	4.1	Arbovirus anti repeat=3.8
N/C(=N\OC(=O)c1cccc2ccccc12)c1ccccn1	/	-3.1	2.4	4.9%	/

The results go on.
SMILES	YopH inh	Mtb bLac sens	RecA intein inh	Mtb growth	Arbovirus anti	others
Cc1cc(NC(=O)Cn2c(C)nc3ccccc3c2=O)ccc1Br	-11.3	7.4	-4.8	-6.6%	-5.8
Cc1cccc(CSc2ncc(CO)n2C)c1	-27.0	-5.0	0.3	-4.2%	6.4
CCCCNC(=O)CSc1nc2n[nH]c(C)c2c(=N)n1-c1cccc(Cl)c1C	-38.0	1.2	-0.9	-9.4%	-11.6
CCNC(=S)N1CCN(CC(=O)Nc2ccc(Br)cc2)CC1	-9.3	-2.7	0.1	1.3%	10.0
COc1ccc(-c2csc3ncnc(N4CCN(S(=O)(=O)c5cccc(F)c5)CC4)c23)cc1	/	0.9	-4.2	/	/
Cc1ccccc1-n1ccnc1SCC(=O)NC1CCCC1	/	0.1	2.9	/	/
O=C(COC(=O)CNS(=O)(=O)c1ccc(F)c(F)c1F)NC1CC1	/	1.9	0.7	/	/
O=C(CSc1nc2ccccc2c(=O)n1CCCO)N1CCc2ccccc21	-19.1	-1.9	-1.2	-6.0%	-3.8
S=c1[nH]nc(-c2cccc(Cl)c2)n1/N=C/c1ccc(-c2ccccc2Br)o1	/	39.3	0.7	1.9%	/
CC(=O)N1CN(S(=O)(=O)c2ccc(C)cc2)CC1C (stereo unspecified)	2.6	6.4	0.8	-2.2%	-2.2
O=C(c1ccco1)N1CCN(C(=O)C2CCN(S(=O)(=O)c3cccs3)CC2)CC1	-43.8	3.3	0.6	-5.8%	4.6
COc1ccc(Cl)cc1C(=O)NCCCSc1ccccc1	/	-10.1	6.7	/	/
CSC1=NCCN1C(=O)C12CC3CC(CC(C3)C1)C2	/	-11.4	7.5	3.7%	20.8
CCOC(=O)c1nn(-c2ccc(OC)cc2)c(=O)c2c(N)scc12	14.9	15.5	46.9*	5.5%	-3.2
Nc1ccc2nc(SCc3ccccc3F)sc2c1	/	73.3	-2.7	51.0%	/
CC(C)c1ccc(OCC(=O)Nc2ccc(S(=O)(=O)Nc3ccccn3)cc2)cc1	/	-11.8	-1.3	/	/
Cc1ccc(S(=O)(=O)Nc2cc3c4c(c2)CCC(=O)N4CCC3)cc1	/	-4.9	-2.1	/	/
CN(C)C(=O)CN1C(=O)NC(c2ccccc2)(c2ccccc2)C1=O	/	-2.6	1.7	/	/
c1ccc(-c2nnc3ccc(N4CCC5(CC4)OCCO5)nn23)cc1	-25.0	-5.7	0.4	8.9%	-7.3
Cc1ccc(NC(=O)CSCC(=O)N(C)CC(=O)Nc2cccc3ccccc23)cc1	/	-6.8	1.7	/	/
COc1ccc(C2/C=C\CN(C(=O)c3ccc(C)cc3)CC(=O)N2Cc2ccc(F)cc2)cc1 (stereo unspecified)	/	-3.7	6.1	-1.8%	/
CC(=O)N=C(N)Sc1nc2ccccc2[nH]1	-16.1	7.2	6.3	-0.3%	-0.8
Cc1cccn2c(=O)c3cc(C(=O)NC4CCCC4)c(=N)n(CC4CCCO4)c3nc12 (stereo unspecified)	/	-4.3	i	/	/
CC(C)CC(=O)c1c[nH]c(C(=O)NCCCn2ccnc2)c1	-5.4	-0.5	6.2	-1.2%	3.2
CCc1c(C(=O)OCc2ccccc2)[nH]c(C)c1C	/	17.5	/	0.5%	/

For convenience, part of the list above:
SMILES	YopH inh	Mtb bLac sens	RecA intein inh	Mtb growth	Arbovirus anti	others
CCOC(=O)c1nn(-c2ccc(OC)cc2)c(=O)c2c(N)scc12	14.9	15.5	46.9*	5.5%	-3.2
Nc1ccc2nc(SCc3ccccc3F)sc2c1	/	73.3	-2.7	51.0%	/
CC(C)c1ccc(OCC(=O)Nc2ccc(S(=O)(=O)Nc3ccccn3)cc2)cc1	/	-11.8	-1.3	/	/
Cc1ccc(S(=O)(=O)Nc2cc3c4c(c2)CCC(=O)N4CCC3)cc1	/	-4.9	-2.1	/	/
CN(C)C(=O)CN1C(=O)NC(c2ccccc2)(c2ccccc2)C1=O	/	-2.6	1.7	/	/

Returning to the listing; the 2 compounds before the break are reprinted first.
SMILES	YopH inh	Mtb bLac sens	RecA intein inh	Mtb growth	Arbovirus anti	others
CC(C)CC(=O)c1c[nH]c(C(=O)NCCCn2ccnc2)c1	-5.4	-0.5	6.2	-1.2%	3.2
CCc1c(C(=O)OCc2ccccc2)[nH]c(C)c1C	/	17.5	/	0.5%	/
CCn1nc(NS(=O)(=O)c2ccc(NC(C)=O)cc2)c2cc3ccc(C)cc3nc21	/	-5.2	-0.4	/	/
COc1ccc(CNCCc2c(C)[nH]c3ccc(OC(F)(F)F)cc23)c(OC)c1	/	44.1	0.6	/	/
CCOC(=O)N1CCC(NC(=O)CCC(=O)c2ccccc2)CC1	-24.3	-19.3	-1.0	-12.2%	0.0
CC(=O)Oc1c(-c2ccco2)oc2ccccc2c1=O	/	95.3	-97.5	51.4µM*	9.5
CCc1nn(-c2cc(Cl)ccc2OC)c2c1C(=O)CCC2	-32.5	-2.1	-0.2	1.4%	-16.1
CCN(C(=O)CSc1nnc2ccccn12)C1CCS(=O)(=O)C1 (stereo unspecified)	/	1.9	/	0.6%	-1.2
Cn1c(CN2CCCCC2)nc2cc(NC(=O)c3ccc(F)cc3)ccc21	-19.0	9.3	/	-15.6%	-8.7
CCOC(=O)c1ccc(Nc2nc(C)cc(=O)[nH]2)cc1	-19.8	-9.2	0.8	-4.2%	-11.1
O=C(Nc1c[nH]c(=O)[nH]c1=O)c1ccc([N+](=O)[O-])cc1	/	0.5	3.7	-2.4%	10.8
CCCCCC/C=N/Nc1nnc(Cc2ccc(OC)c(OC)c2)c(=O)[nH]1	/	-5.2	-2.3	/	/
O=C(CCCOc1cccc(Br)c1)NC1CCC(O)CC1 (stereo unspecified)	/	-7.6	2.7	/	/
COC(=O)C1=C(C)N(CCc2ccc(OC)c(OC)c2)C(=O)/C1=C\N(C)C	-23.9	-10.0	9.4	-4.1%	12.0
CCOC(=O)c1cnc2nc(SC)nn2c1N	/	-0.1	-0.8	/	2.1
O=C(CCNS(=O)(=O)c1ccccc1C(F)(F)F)N1CCN(S(=O)(=O)c2cccc(Cl)c2)CC1	/	0.5	0.1	/	/
CCN1CCN(C(C)CCc2ccccc2)CC1 (stereo unspecified)	/	-1.8	-2.2	/	/
CC(=O)c1cccc(NC(=O)/C(=C\c2ccco2)NC(=O)c2ccco2)c1	/	1.5	-0.7	/	/
CCC(=O)Nc1ccc(C(=O)COC(=O)C(CCSC)NC(=O)COc2ccccc2)cc1 (stereo unspecified)	/	-2.7	1.3	/	/
O=C(Oc1ccc(/C=N/Nc2nc(N3CCCCC3)nc(N3CCCCC3)n2)cc1)c1ccco1	/	11.0	-3.2	14.1%	-18.4
CCN(CC)CCOC(=O)c1ccc(NC(=S)NC(=O)/C=C/c2ccco2)cc1	/	26.0	4.2	/	/
O=c1[nH]cc(COCC(F)(F)C(F)(F)C(F)(F)F)c(=O)[nH]1	/	-4.7	-1.1	5.9%	-1.2
COc1ccc(CC(=O)N2CCN(c3ccccc3OC)CC2)cc1	/	-4.9	0.8	/	/
Cn1ncc(S(=O)(=O)Cc2ccccc2)c(Cl)c1=O	/	-6.0	16.7	-7.3%	/
CCOc1ccccc1N(CC(=O)Nc1ccccc1C(=O)OC)S(C)(=O)=O	-24.7	4.8	-2.0	-1.2%	-2.9
COc1ccc(S(=O)(=O)N(C)CC(=O)Nc2ccccc2C(F)(F)F)cc1	29.2	6.0	0.0	-0.5%	-0.1
COc1ccc(NS(=O)(=O)c2cccc(-c3nnc4n3CCCCC4)c2)cc1	-40.8	-12.7	-1.6	15.3%	2.5	Arbovirus anti repeat=12.2
O=c1c(Cl)c(N2CCN(S(=O)(=O)c3ccccc3)CC2)cnn1-c1ccccc1	-36.4	0.7	-0.7	-14.6%	-9.7
O=C(NCc1ccc(F)cc1)c1ccc(CS(=O)(=O)Cc2ccc(F)cc2)o1	-26.1	-7.6	-4.5	-13.2%	1.4
CCC(c1nnnn1Cc1ccc(F)cc1)N1CCN(C)CC1 (stereo unspecified)	/	-8.4	-3.9	-0.8%	5.7
CCOc1cc(N2CCOCC2)c(OCC)cc1NC(=O)CCC1CCCC1	-25.9	4.3	-3.0	3.0%	4.0

Bioassay records (PubChem)

These rows are one share of the data; rates above refer to the full screens.
